HNF4A DNA FP = change in binding of human HNF4A to DNA, primary screen, biochemical, fluorescence polarization, FITC-DNA; AID 1224865, 2016; hit rate 0.3% among 360,000; activity change, % at 10 µM; 1 h; Hepatocyte nuclear factor 4-alpha (Homo sapiens), P41235; in the data active means activity change above about 30%, passing the limit was not always enough;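 further: controls were the assay level and a saturating level of protein; the project sought stronger binding though the title names inhibitors; some compounds called inactive have numbers as strong as hits; positive values seem to mean higher polarization but the record does not say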
Target sequence (P41235 whole entry, looked up): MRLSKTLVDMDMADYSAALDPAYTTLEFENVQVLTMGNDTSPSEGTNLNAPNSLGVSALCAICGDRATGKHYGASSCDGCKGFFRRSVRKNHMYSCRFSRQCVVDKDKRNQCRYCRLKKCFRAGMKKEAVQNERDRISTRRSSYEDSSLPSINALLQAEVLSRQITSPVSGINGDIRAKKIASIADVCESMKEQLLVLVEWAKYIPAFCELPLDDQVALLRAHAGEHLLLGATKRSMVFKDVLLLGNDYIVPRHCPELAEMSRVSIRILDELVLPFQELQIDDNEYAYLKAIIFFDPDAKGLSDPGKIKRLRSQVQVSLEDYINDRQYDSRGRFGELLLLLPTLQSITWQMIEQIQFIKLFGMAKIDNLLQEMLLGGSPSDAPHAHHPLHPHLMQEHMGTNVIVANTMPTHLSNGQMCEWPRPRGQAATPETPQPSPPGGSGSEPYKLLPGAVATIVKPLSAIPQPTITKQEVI
B2AR ag = beta2AR agonists driving receptor internalization, primary screen, cell-based, FAP fluorogen, flow cytometry | response, % (test concentration not listed) | Am2.2-beta2AR cells; reference of the scale not given here | Beta-2 adrenergic receptor (Homo sapiens), P07550 | AID 504454, 2011 | hit rate 0.43% among 340,000;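 active means response above a set limit, near 3 SD of response in nonfluorescent compounds, cut at about 42% in these data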;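 further: stock transfer was 100 nL into about 11 µL; a reference agonist was the positive control; negative values mostly stem from fluorescent compounds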
Target sequence (P07550 whole entry, looked up): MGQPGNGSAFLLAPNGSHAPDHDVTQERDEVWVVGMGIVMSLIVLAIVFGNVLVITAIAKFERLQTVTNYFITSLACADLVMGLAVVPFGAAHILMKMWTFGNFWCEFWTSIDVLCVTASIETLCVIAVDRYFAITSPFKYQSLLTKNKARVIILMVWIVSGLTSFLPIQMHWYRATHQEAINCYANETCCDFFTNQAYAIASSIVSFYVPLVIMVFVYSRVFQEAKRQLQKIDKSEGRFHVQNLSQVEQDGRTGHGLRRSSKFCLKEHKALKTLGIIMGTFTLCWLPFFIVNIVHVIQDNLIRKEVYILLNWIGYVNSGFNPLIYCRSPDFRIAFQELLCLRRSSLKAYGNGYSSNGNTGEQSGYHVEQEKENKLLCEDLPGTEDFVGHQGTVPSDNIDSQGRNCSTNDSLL
Ecoli growth = E. coli growth inhibition, primary screen, OD600 | OD600 absorbance (concentration not given with the values) | Escherichia coli growth, 23 h; hits give low values | hit rate 0.21% among 330,000 | AID 1053175, 2014;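 active means OD600 absorbance below the run mean of sample wells minus 3.6 SD, in any replicate, cut at about 0.56 in these data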;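 further: stock transfer was 300 nL into about 60 µL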
Vif A3G = inhibitors of Vif binding to APOBEC3G peptide, primary screen, biochemical, TR-FRET, GST-Vif 1-94, biotin-A3G peptide, dose response retest (AID 1117319). hit rate 0.57% among 260,000. inhibition, %; hits with a dose series show IC50 in µM. TR-FRET GST-Vif / biotin-A3G peptide binding; higher % means a stronger effect; test concentration not given here; strong numbers were not always called active;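 active means above the screen mean plus three standard deviations and confirmed in dose response; inconclusive means results disagree or hit not tested in dose response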;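 further: Vif residues 1-94 fused to GST binding biotinylated APOBEC3G peptide 110-148; 0% = full assay without inhibitor and 100% = GST in place of GST-Vif; retest series ran down from 100 µM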
LANA-H2A inh = blockers of LANA interaction with H2A/H2B – biochemical, FP readout, HTS, primary screen; Protein LANA1 (Human herpesvirus 8 type P (isolate GK18)), Q9QR71; hit rate 0.6% among 320,000; cell-free LANA-H2A/H2B peptide, fluorescence polarization; AID 2629, 2010; inhibition, % (test concentration not listed); in the data active means inhibition mostly above about 10%, no sharp cut-off; inactive means mostly below about 6.7%;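 further: stock transfer was 7.5 nL into about 10 µL; 0% = median of vehicle wells and 100% = median of positive control wells; one replicate is shown; the record names a cut of 25% in any replicate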
UCH37 DUB inh = inhibitors of human UCH37 deubiquitinase, primary screen, biochemical, Ub-AMC cleavage, fluorescence; AID 588478, 2011; inhibition, % (concentration not given with the values); hit rate 0.33% among 330,000; purified proteasome/UCH37;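 active means mean of two replicates above 20%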;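 further: 0% = compound-free wells with enzyme and 100% = wells lacking proteasome; stock transfer was 100 nL into about 20 µL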
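assay system = human UCH37 enzyme supplied as purified proteasome complex | amount = proteasome at 0.15 nM in the dispensed enzyme solution | schedule = 30 min compound-proteasome preincubation then 25 min substrate reaction, room temperature | measured by = fluorescence, ex 355 nm, em 460 nm | benchmarks = no-proteasome wells (full inhibition) and compound-free wells (no inhibition)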
Bfl-1 A1 inh = caspase 3/7 activation in MEF A1-2A-BIM cells, primary screen, A1 inhibitor project, cell-based, luminescence, HTS. Caspase-Glo 3/7 luminescence, 3 h; percent of clofoctol response, vehicle zero. caspase activation, % (concentration not given with the values). hit rate 0.066% among 330,000;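 active means over half of replicate activation scores above 10%, or exactly half above 10 with the replicate mean above 10; inconclusive means replicate mean below 10 yet half the replicates above 10; inactive means over half of replicates below 10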;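 further: wells of about 30 µL received 50 nL stock; many hits fall short of the cut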
* hit, by the source's call; ? = inconclusive; · = no result given.

SMILES	HNF4A DNA FP	B2AR ag	Ecoli growth	Vif A3G	LANA-H2A inh	UCH37 DUB inh	Bfl-1 A1 inh
CCCCOc1ccc(CC(=O)NCC(=O)O)cc1	2.6	-3	0.66	-13%	3.4	0.7	-0.3
COc1ccc(OC)c(NC(=O)c2ccccc2N(C)S(=O)(=O)c2ccc(C)cc2)c1	-3.8	5	0.69	·	-2.2	-0.3	1.0
COC(=O)N/N=C/c1cccnc1	-0.8	0	·	3%	-1.3	·	-0.4
CCCN(CC1CCCO1)C(=O)CCc1nnc(-c2cc(C)on2)o1 (stereo unspecified)	-0.6	2	0.69	15%	0.5	-0.7	0.5
Cc1nc(NC(=O)CCCC(=O)Nc2nc(C)c(C)s2)sc1C	-1.2	7	0.64	8%	1.4	2.0	0.4
Cc1c(C(=O)N/N=C/c2ccc(N3CCOCC3)cc2)nc2ccccn12	0.3	-7	·	·	2.6	·	1.6
O=C(NCCOc1ccccc1)C(=O)NCC1CCCO1 (stereo unspecified)	1.1	-5	0.71	1%	0.0	2.1	0.5
COc1ccccc1C=NNC(=O)c1ccncc1	0.6	8	0.68	-6%	·	4.9	·
CCOC(=O)N1CCC(N2CCCC(CO)(Cc3ccccc3C)C2)CC1 (stereo unspecified)	5.6	-4	0.66	2%	0.5	2.9	-0.2
O=C(CCN1C(=O)c2ccccc2C1=O)N1CCCCCC1	-1.5	7	0.79	-8%	-4.1	2.1	0.1
O=C(c1cc2ccccc2o1)N1CCN(c2ncccn2)CC1	3.8	4	0.68	-1%	7.8	4.2	1.0
COc1ccc(-c2ccc(CCC(=O)O)n2CC(=O)Nc2cccc(OC)c2)cc1	7.3	14	0.68	·	-14	-21	1.4
CC(C)Sc1oc(-c2ccco2)nc1S(=O)(=O)c1ccccc1	3.4	1	0.68	8%	-3.0	5.5	-0.5
Cn1c(=N)n(CC(=O)O)c2ccccc21	2.6	10	0.77	1%	-1.2	0.9	0.8
Cc1nn(C)cc1/C=N/NC(=O)CSc1ccccn1	0.6	2	·	9%	-1.9	·	0.2

Compounds shown so far containing a COOH group (three):
SMILES	HNF4A DNA FP	B2AR ag	Ecoli growth	Vif A3G	LANA-H2A inh	UCH37 DUB inh	Bfl-1 A1 inh
CCCCOc1ccc(CC(=O)NCC(=O)O)cc1	2.6	-3	0.66	-13%	3.4	0.7	-0.3
COc1ccc(-c2ccc(CCC(=O)O)n2CC(=O)Nc2cccc(OC)c2)cc1	7.3	14	0.68	·	-14	-21	1.4
Cn1c(=N)n(CC(=O)O)c2ccccc21	2.6	10	0.77	1%	-1.2	0.9	0.8

Going on with the list:
SMILES	HNF4A DNA FP	B2AR ag	Ecoli growth	Vif A3G	LANA-H2A inh	UCH37 DUB inh	Bfl-1 A1 inh
O=C1CC(c2ccc(F)cc2)Cc2nc(NCc3ccco3)ncc21 (stereo unspecified)	1.6	2	0.71	-7%	2.0	1.5	-0.6
CCCn1c(NC(=O)C23CC4CC(CC(O)(C4)C2)C3)nc2ccccc21	1.8	-18	0.68	·	-0.2	2.6	-0.1
CCC(C)(C)n1nnnc1CN(Cc1ccco1)Cc1cc2cc3c(cc2[nH]c1=O)OCO3	-9.9	0	0.81	25%	-0.2	-24	0.2
Cc1ccc(S(=O)(=O)NCC(=O)NCC2CCCCC2)cc1C	-1.1	0	0.71	·	0.3	-1.4	-0.2
CC(=O)Nc1ccc(S(=O)(=O)NCC2CCC(C(=O)N3CC(C)CC(C)C3)CC2)cc1 (stereo unspecified)	-1.0	-12	0.64	-4%	-2.5	4.0	0.0
COc1ccc(-n2nc(C(=O)Nc3ccc(OC)c(OC)c3)c3c4ccccc4n(C)c3c2=O)cc1	-2.4	15	0.75	-4%	4.7	-2.8	-0.3
O=C(C1CC(=O)N(c2ccc(Cl)cc2)C1)N1CCCCCC1 (stereo unspecified)	3.4	-9	0.7	-7%	3.6	4.0	-1.9
COC(=O)c1cc(OC(=O)CCc2ccc(OC)c(OC)c2)cc(C(=O)OC)c1	-0.8	3	0.66	·	4.5	-1.5	0.0
CCCNC(=O)Nc1ccc(F)c(Cl)c1	0.7	-8	0.62	-10%	2.1	0.9	-0.4
CCOc1cc(CN2CCN(C(=O)c3ccco3)CC2)ccc1OC	-2.5	5	0.63	3%	0.7	1.0	-0.1
Cc1occc1C(=O)N1CCCC(Nc2ccc(C(C)C)cc2)C1 (stereo unspecified)	-2.1	-2	0.75	·	3.3	0.8	0.4
Cc1ccc(NS(=O)(=O)c2ccc(NC(=O)N3CCCCC3)cc2)cc1	-4.0	-3	0.72	·	-0.4	6.1	-0.1
NC/C(=N\O)c1ccc(Cl)cc1Cl	3.5	2	·	3%	-1.8	·	-0.2
O=C1NN=C(c2ccc(Cl)cc2)CC1c1cccc(Cl)c1 (stereo unspecified)	-0.9	-6	0.67	?	-1.9	1.9	0.1
CCC(C)c1c(O)nc(SCC(=O)N2CCCCCC2)[nH]c1=O (stereo unspecified)	-0.2	-5	0.67	·	1.3	5.6	-0.5
CC1CCCCC12NC(=O)N(CC(=O)Nc1cccc(S(=O)(=O)N3CCCCC3)c1)C2=O (stereo unspecified)	3.4	5	0.68	·	·	1.3	·
Cc1ccc2c(c1)n([O-])c1c([n+]2=O)CCCC1	3.4	7	0.69	2%	0.6	9.3	-0.4
CCc1ccc(NC(=O)C2CCN(c3c(N4CCCC4)c(=O)c3=O)CC2)cc1	2.5	-7	0.68	·	-3.4	6.1	0.2
Nc1ccn(Cc2cccc(F)c2)n1	9.1	-3	0.6	15%	4.4	1.0	1.0
CC1CCC(C(=O)NC(C(=O)NCCc2ccc(S(N)(=O)=O)cc2)C(C)C)CC1 (stereo unspecified)	-3.1	8	0.67	-1%	-4.2	3.7	2.7
COc1ccc(-c2cc(C(=O)Nc3cc(C)nn3-c3ccccc3)no2)cc1	0.6	13	0.75	-5%	1.1	1.8	-0.1
CCOC(=O)N1CCN(C(=S)NC)CC1	-0.8	-8	0.72	-3%	2.5	2.5	0.5
CCCCc1c(CCC)c(=N)c2ccccc2n1C	-0.5	-9	0.7	0%	-2.0	-41	-0.7
Clc1ccc(Cn2cc(/C=N/n3cnnc3)c3ccccc32)c(Cl)c1	2.9	23	·	24%	-1.9	·	0.1
CC(C)N(CCO)C(=O)CCc1nnc(CCCc2ccccc2)o1	1.5	9	0.69	0%	-3.5	2.4	0.4
COc1cccc(C(C(=O)NC2CCCCC2)N(Cc2ccco2)C(=O)c2ccccn2)c1 (stereo unspecified)	0.2	9	0.69	·	-1.8	1.1	-0.1
Cn1c(-c2ccccc2)cc(=O)n1-c1ccccc1	29	0	0.65	-6%	·	0.2	·
O=C(O)CC(SCC(=O)Nc1ccc(Br)cc1)C(=O)O (stereo unspecified)	0.9	1	0.67	-1%	6.8	2.6	0.4
CC(=O)NC1C(=O)N=C(SCC(=O)NCc2ccccc2)NC1=O (stereo unspecified)	0.4	-3	0.7	15%	7.7	2.9	0.6
COc1ccccc1N1CCN(C(CNS(=O)(=O)c2ccccc2)c2ccccc2)CC1 (stereo unspecified)	-3.1	12	0.69	3%	-0.2	0.7	1.3
COC(=O)C[C@H]1c2cc(C(F)(F)F)ccc2S(=O)(=O)N1C1CCCC1	1.1	-5	·	·	-1.7	0.8	-0.6
N#CCCn1nnc(-c2ccccc2F)n1	0.3	0	0.7	1%	-2.1	5.2	0.2
Cc1cc(C)c(Cn2c3ccccc3c3cnn(CC(=O)NCCN4CCOCC4)c(=O)c32)c(C)c1	3.9	8	0.7	·	5.9	-8.4	-1.6
O=C(Cc1ccc(Cl)cc1)N1CCOCC1	-1.1	2	0.61	-6%	-2.2	4.8	0.5
Cc1csc(NC(=O)C2COc3ccccc3O2)n1 (stereo unspecified)	3.5	-8	0.72	0%	-0.6	-1.7	-3.9
Cc1cc(C(=O)COC(=O)c2cccn2C)c(C)n1Cc1ccco1	-2.0	-3	0.67	-8%	3.3	1.6	-4.0
Cc1cccc(-n2c(-c3csc4ccccc34)n[nH]c2=S)c1	-0.6	-12	0.66	-1%	5.9	6.0	0.6
Nc1ccn(CC(=O)NCCNc2ccc([N+](=O)[O-])cn2)c(=O)n1	0.4	-9	0.72	·	2.6	4.7	0.0
Cn1c(=O)[nH]c(=O)c2c1nc(CN1CCN(c3ccc(F)cc3)CC1)n2CCc1ccccc1	-0.5	-3	0.65	29%	-2.5	2.9	0.0
Cc1ccn2c(C(=O)N/N=C\c3cccs3)c(C)nc2c1	-1.7	-9	·	28%	0.7	·	-0.6
CC(C)C(C)NC(=O)COC(=O)C1CCN(S(=O)(=O)c2ccc3c(c2)OCCO3)CC1 (stereo unspecified)	1.7	-2	0.67	6%	-8.8	1.7	1.2
O=C1c2ccccc2C(=O)N1n1cccc1	-1.9	4	0.69	·	-3.2	1.8	0.4
COc1ccc(C/C(O)=C(\C#N)c2nc3ccccc3s2)cc1	1.9	4	·	1%	1.7	·	-1.2
O=C(CN1CCN(Cc2ccccc2Cl)C1=O)NCC1CCCO1 (stereo unspecified)	0.2	8	0.76	-1%	4.2	5.0	1.1
COc1ccc(-n2cccc2/C=C2\C(=N)N3N=C(c4ccco4)SC3=NC2=O)cc1	-63	0	0.72	·	6.9	10	-0.1
Cc1nnc(SCC(=O)c2c[nH]c3ccccc23)n1C1CC1	-1.9	3	0.61	-5%	-1.2	1.0	0.6
Cc1ccc(/C=N/NC(=O)CNC(=O)c2cccs2)o1	0.7	2	·	-1%	-1.7	·	1.5
COC(=O)c1ccc(N(CC(=O)NCC2CCCO2)C(=O)CCC(=O)Nc2cc(C)on2)cc1 (stereo unspecified)	-3.0	3	0.66	·	-0.1	3.6	-0.2
COc1ccc(N(C)S(=O)(=O)c2cccc(C(=O)NCC(c3cccs3)N(C)C)c2)cc1 (stereo unspecified)	2.8	3	0.68	2%	2.8	2.6	1.8
CCCN1C(=O)CC(C(=O)OC)=C1C	2.7	7	0.7	0%	6.5	2.5	0.3
CC(=O)Oc1ccc(C(=O)NCCc2ccccc2)cc1	6.2	-2	0.7	13%	-6.2	0.0	-4.0
COc1ccc(COc2cc(-c3cccc(OC)c3)nc3ccc(NC(=O)c4ccc(C)cc4)cc23)cc1	2.4	-7	0.86	0%	-0.8	3.3	0.8
CCc1ccc(/C=C/C(=O)c2c(C)cc(C)[nH]c2=O)cc1	0.5	10	0.79	0%	0.4	6.7	0.4
COc1cc2nc(N(C)CCCNC(=O)C3CCCO3)nc(N)c2cc1OC (stereo unspecified)	·	·	0.68	-3%	0.1	-68	-1.0

Complete entries, quoted from the list. Order of values: HNF4A DNA FP | B2AR ag | Ecoli growth | Vif A3G | LANA-H2A inh | UCH37 DUB inh | Bfl-1 A1 inh
O=C(NCCOc1ccccc1)C(=O)NCC1CCCO1 (stereo unspecified) is listed with 1.1 | -5 | 0.71 | 1% | 0.0 | 2.1 | 0.5
CC1CCCCC12NC(=O)N(CC(=O)Nc1cccc(S(=O)(=O)N3CCCCC3)c1)C2=O (stereo unspecified) is listed with 3.4 | 5 | 0.68 | · | · | 1.3 | ·
COC(=O)N/N=C/c1cccnc1 is listed with -0.8 | 0 | · | 3% | -1.3 | · | -0.4
COc1ccc(-c2cc(C(=O)Nc3cc(C)nn3-c3ccccc3)no2)cc1 is listed with 0.6 | 13 | 0.75 | -5% | 1.1 | 1.8 | -0.1
CC(=O)NC1C(=O)N=C(SCC(=O)NCc2ccccc2)NC1=O (stereo unspecified) is listed with 0.4 | -3 | 0.7 | 15% | 7.7 | 2.9 | 0.6

Compound activity: PubChem BioAssay, several laboratories

Random draw from the library; about 2.1% have a hit in one of these screens.
